PINK1 expr mod: modulators of PINK1 expression; Potency, µM (doses to about 76.6 µM), for the others: top-dose activation (PINK1 increase), usual class: activators; 410,000 compounds, 0.2% hits; PINK1 immunofluorescence, high-content cytometry, 24 h; active = well fitted activation curve with a large enough effect; inconclusive = small, poorly fitted or top-dose-only effect; inactive = flat fitted curve, though single readings scatter; cell line not stated here;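 also: potency is read from the fitted curve at half-maximal effect; % of control where 0% means no effect; nearly all actives have a fitted effect of over 65% in size; a mitochondrial uncoupler was the plate control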
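A stable cell line was treated with compounds at 5 concentrations for 24 hours, with CCCP as control. PINK1 levels and mitochondrial localization were measured by immunofluorescence with mitochondrial, cell and nuclear markers after fixation, read by laser-scanning cytometry.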
TRPML1 ag: agonists of human TRPML1 channel. activation, % (concentration not given with the values). TRPML1-expressing cells, Ca2+ dye fluorescence, FDSS; host cell line not named in the record; reference of the full effect not given here. 410,000 compounds, 0.12% hits; in the data active = activation above about 50%; inconclusive = about 30% to 50%; inactive = below about 30%; also: 0% is about no effect; the text of the record puts the active cut at 80%
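Calcium fluorescence on an FDSS kinetic reader gave the read-out. Tet-induced TRPML1-DL cells were plated overnight, dye-loaded (Ca8 with quencher, 45-90 min, room temperature, dark), then read 110 s after compound addition, and again 110 s after 4uM final 54-4 (EC80).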
TRPML1 inh: human mucolipin-1 channel inhibition; Q9GZU1; TRPML1-inducible cells, Ca2+ dye fluorescence, FDSS; active compounds read low; inhibition of EC80 agonist-evoked calcium signal; activity change, negative = inhibition, % (test concentration not listed); 390,000 compounds, 0.02% hits; AID 624415; in the data active means activity change below about -50%; inconclusive means about -30% to -50%; inactive means above about -30%;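 also: stimulus is agonist 54-4 at its EC80 concentration; % is scaled to controls: 0 for no effect and ±100 for the full control effect; compound concentration not given in the record; the text of the record puts the active cut at -80%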
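TRPML1-DL cells, Tet-induced overnight (~16 h, 37 °C) at 1,500 cells/well, were loaded with Ca8 no-wash dye plus quencher for 45-90 min at room temperature. Compounds were pinned during FDSS kinetic reading; agonist 54-4 at EC80 (4 uM final) then added.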
D2 potentiator: potentiates the human D2 dopamine receptor allosterically; P14416; DiscoveRx D2 beta-arrestin cells, luminescence, 90 min; 100% = 57 uM dopamine signal; potentiation, % (concentration not given with the values); 360,000 compounds, 0.23% hits; active = potentiation of 50% or more; inconclusive = 30% to 50%; inactive = 30% or less;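 also: tested on top of an EC20 dose of dopamine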
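PathHunter beta-arrestin assay in DiscoveRx D2 cells. Compounds were added with an EC20 of dopamine (50 nM final) for 90 min at 37 deg C. Luminescence was read 1 h after detection reagent, with 57 uM dopamine as the EC100 control.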
Six1-Eya2 blk: blocks human Six1 binding to Eya2; AlphaScreen GST-Six1/His-Eya2 binding, biochemical; active compounds read low; control for the full effect not named in the record; 360,000 compounds, 0.56% hits; AID 651725; activity change, % (test concentration not listed); Q15475+O00167; in the data active = activity change below about -65%; inconclusive = about -30% to -65%; inactive = above about -30%; also: % is scaled to controls: 0 for no effect and ±100 for the full control effect
Target sequence (O00167 whole entry, looked up): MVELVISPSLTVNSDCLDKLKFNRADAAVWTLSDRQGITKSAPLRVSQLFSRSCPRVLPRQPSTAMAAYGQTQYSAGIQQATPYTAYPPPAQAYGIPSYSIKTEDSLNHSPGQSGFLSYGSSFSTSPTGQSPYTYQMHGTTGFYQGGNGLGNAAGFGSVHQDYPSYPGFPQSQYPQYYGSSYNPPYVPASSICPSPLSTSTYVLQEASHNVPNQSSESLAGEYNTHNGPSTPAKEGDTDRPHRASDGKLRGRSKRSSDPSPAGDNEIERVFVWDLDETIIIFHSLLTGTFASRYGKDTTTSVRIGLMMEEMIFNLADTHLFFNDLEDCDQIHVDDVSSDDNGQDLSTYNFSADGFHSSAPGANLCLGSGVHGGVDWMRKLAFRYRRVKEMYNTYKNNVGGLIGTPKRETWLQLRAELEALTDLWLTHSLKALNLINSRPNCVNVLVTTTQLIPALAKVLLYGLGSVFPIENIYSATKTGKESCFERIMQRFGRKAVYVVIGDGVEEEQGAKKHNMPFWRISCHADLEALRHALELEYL
Target sequence (Q15475 whole entry, looked up): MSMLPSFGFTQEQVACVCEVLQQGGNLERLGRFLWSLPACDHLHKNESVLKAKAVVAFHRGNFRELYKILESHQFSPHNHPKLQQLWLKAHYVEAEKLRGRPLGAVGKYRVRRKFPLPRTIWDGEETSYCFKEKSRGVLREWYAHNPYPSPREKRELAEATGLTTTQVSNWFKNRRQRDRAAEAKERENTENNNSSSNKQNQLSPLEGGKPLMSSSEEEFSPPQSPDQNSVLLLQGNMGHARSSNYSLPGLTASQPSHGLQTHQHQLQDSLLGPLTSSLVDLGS
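GST-Six1 + His-Eya2 (5X stock: 250/500 nM); Tris pH 8.0, 300 mM NaCl, 0.05% BSA, 0.02% Tween 20; GSH donor/Ni acceptor beads; 1 h 37 °C dark; AlphaScreen readout.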
D2 agonist: activates the human D2 dopamine receptor; activation, % (concentration not given with the values); 360,000 compounds, 0.084% hits; DiscoveRx PathHunter D2 beta-arrestin, luminescence, 90 min; 100% = 57 uM dopamine signal; P14416; in the data active = activation above about 40%; inconclusive = about 15% to 40%; inactive = below about 15%; also: the text of the record calls up to 30% inactive
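Agonist mode: compounds alone added to overnight-plated D2 PathHunter cells for 90 min at 37 C, with 57 uM final dopamine (EC100) defining full response. Beta-arrestin recruitment detected by chemiluminescent reagent, read after 1 h at ambient temperature.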
Active calls of the source: *; u = inconclusive; x = no result given; [ ] = another dose, or the depositor's remark.

SMILES	PINK1 expr mod	TRPML1 ag	TRPML1 inh	D2 potentiator	Six1-Eya2 blk	D2 agonist
O=C(O)c1cccc(Nc2ccc([N+](=O)[O-])cn2)c1	0.2%	0.3	0	-3	0	-4.4
Cc1cccc(-c2onc3ccc(C4(C)OCCO4)cc23)c1	3.8%	2.0	1	28	7	u
CCCC(=O)N1c2nc(-c3ccco3)nn2C2(CCCCC2)[C@@H]2CCCC[C@@H]21	1.1%	2.5	37	x	x	x
C=CCNC(=O)c1ccc2c3n(nc2c1)-c1ccccc1CO3	-0.9%	0.2	-3	-6	0	-1.1
CN1CCN(CP(=O)(N2CCOCC2)N2CCOCC2)CC1	0.7%	-0.6	1	-8	9	-2.0
CC(Oc1ccccc1)C(=O)Nc1nnc(S(=O)(=O)N2CCCCC2)s1 (stereo not given)	1.3%	0.7	-14	-11	3	-4.8
Cc1cc(C)cc(N(CC(=O)NCc2ccccc2)C(=O)CCC(=O)Nc2ccccn2)c1	1.0%	-0.1	0	-4	-2	0.7
Cc1cc(S(=O)(=O)N2CCCOC2CNC(=O)C(=O)NCc2ccco2)ccc1F (stereo not given)	2.3%	-0.1	u	-1	1	-4.9
Cn1ccc2c(N3CCCC3)cc3c(c21)C1CCC3O1 (stereo not given)	0.2%	1.0	x	2	-23	14
Cc1ccc(S(=O)(=O)N2CCN(C(=O)C3CCCO3)CC2)cc1C (stereo not given)	0.0%	-0.1	-9	15	-3	2.2
CCOC(=O)/C=c1\s/c(=C(\C#N)C(=O)OCC)n(-c2ccccc2)c1=O	0.3%	2.1	-14	1	-1	0.5
CC(=O)Nc1ccc(S(=O)(=O)N(C)CC(=O)N/N=C/c2ccncc2)cc1	0.3%	-0.1	18	-6	-5	-0.6
CCCc1[nH]n(-c2ccc([N+](=O)[O-])cc2)c(=O)c1C=NCCc1c[nH]c2ccccc12	17%	0.9	19	-10	-5	-1.1
COc1ccc(C)cc1NC(=O)CCNS(=O)(=O)c1ccc2c(c1)CC(C)N2C(C)=O (stereo not given)	-0.2%	0.0	3	-18	-2	-0.9
O=C(NC1(C(F)(F)F)Oc2ccccc2O1)N1CCCC1	1.9%	-0.1	5	17	-1	2.0
Oc1c(Br)cc(/C=N/NC(=S)NCc2ccco2)cc1Br	-1.9%	1.4	52	8	-19	-2.4
Cc1oc(-c2ccccc2Cl)nc1CN1CCCN(C(=O)c2ccco2)CC1	0.2%	0.4	35	-11	0	-5.7
CCc1nc2cc3sc(CC)nc3cc2s1	-1.2%	-0.5	-12	-1	-4	1.6
O=C(c1ccccc1)c1ccc(-n2cnnc2)c([N+](=O)[O-])c1	2.5%	-0.6	-9	-3	3	-0.9
Cc1ccc(S(=O)(=O)N2CCOCC2)cc1C(=O)Nc1ccc(N2CCCCCC2)cc1	2.9%	0.3	-1	-6	u	-1.4
Cc1ccc(NC(=O)c2cnc(SCC(=O)NCC3CCCO3)n(C)c2=O)cc1C (stereo not given)	-0.3%	-0.1	-11	-11	6	-1.1
CCOC(=O)N1CCC(NC(=O)c2ccc3c(c2)N(Cc2cc(C)ccc2C)C(=O)c2ccccc2S3(=O)=O)CC1	2.3%	1.6	19	x	x	x
Cc1c(NC(=O)COC(=O)/C=C/c2ccc(Cl)cc2)c(=O)n(-c2ccccc2)n1C	0.5%	-0.2	-1	8	8	-1.4
CCCC(=O)Nc1ccc(C(=O)NCCCn2ccnc2)cc1	-2.6%	-0.4	3	-1	1	-0.9
O=C(N/N=C/c1ccoc1)c1ccc(Br)cc1	2.1%	-0.5	-3	-16	-8	-0.1
Cc1ccc(C(=S)NCS(=O)(=O)c2ccc(C)cc2)cc1	12%[38.3 µM]	1.0	9	-17	-1	-6.3
Cc1nc2ccc(C(=O)N3CCN(Cc4ccccc4)CC3)cc2[nH]1	-0.2%	0.6	-2	-5	-1	-3.9
COc1ccc(OCCN2CCC(C(=O)NC(c3ccc(Cl)cc3)c3cnccn3)CC2)cc1 (stereo not given)	0.9%	-0.2	x	-13	-2	-2.3
CC1(C(=O)NS(=O)(=O)c2ccc(C#N)cc2)CCN1C(=O)CCC1CCCC1 (stereo not given)	0.0%	-0.5	x	-10	3	-2.5
Cc1cc2c(N)cccc2nn1	-1.5%	0.5	-3	4	-20	4.1
CCN1CCN(C(=O)/C=C/c2ccc(C)o2)CC1	4.9%	-0.2	-25	-25	6	-0.2
O=c1cc(-c2ccc(O)cc2)oc2c(-c3c(O)cc(O)c4c(=O)cc(-c5ccc(O)cc5)oc34)c(O)cc(O)c12	-0.5%	x	x	-22	-9	-4.1
Cc1ccc(S(=O)(=O)N2CCN(c3ccc([N+](=O)[O-])cn3)CC2)cc1	3.1%	-0.7	52	-10	10	1.5
Cn1cnnc1SCNC(=O)C(F)(F)F	x	-0.5	-2	-8	2	-2.4
CCOC(=O)c1nnn(-c2nonc2-n2cccc2)c1C	-0.4%	1.8	-17	-1	-2	-2.7
CNC(=O)N(C1=NCC(C)S1)c1ccc(F)cc1F (stereo not given)	-8.6%[38.3 µM]	-0.3	-5	-8	-2	-2.5
COc1ccc2c(c1)c(C(=O)CNc1nc(C)cs1)c(C)n2C	3.6%	1.4	-14	-22	u	-0.5
CC(C)(C)OC(=O)C[C@@H]1C/C=C\C[C@H](CC(=O)N[C@H](CO)Cc2ccccc2)C(=O)N[C@H](C(C)(C)C)COC1=O	-0.4%	-0.4	-10	x	-1	-2.7
CN(C)c1ccc(CNC(=O)CN2C(=O)c3cccnc3Oc3ccc(Cl)cc32)cc1	2.8%	1.5	-28	x	x	x
CC(C)Cn1c(=O)c2ccccc2n2c(CCC(=O)N3CCN(c4cccc(Cl)c4)CC3)nnc12	0.3%	2.0	30	x	x	x
O=C(OC1CCCCC1=O)c1cccc(S(=O)(=O)N2CCOCC2)c1 (stereo not given)	-0.2%	1.0	35	-4	3	1.2
COc1ccc(CC(=O)Nc2ccc3nc(Nc4cccc(Cl)c4)cc(C)c3c2)cc1OC	1.5%	-0.6	-6	x	x	x
Cc1ccccc1C#N	0.1%	-0.2	14	-2	1	-0.1
O=[N+]([O-])c1ccc(Cl)c(S(=O)(=O)/N=C(/Nc2cccnc2)c2ccccc2)c1	-0.5%	0.0	-6	15	-15	-1.5
CCOC(=O)c1c(C)n(C)c2ccc(OC(C)=O)cc12	-0.8%	-0.7	-14	-12	0	-4.3
CCOC(=O)C1CCN(CC(=O)Nc2ccc(S(=O)(=O)N3CCC(C)CC3)cc2)CC1	2.3%	0.5	-24	0	5	6.4
CCN(CC)C(=O)/C(=C\c1ccncc1)NC(=O)c1ccccc1	7.6%	-0.3	3	-5	13	-1.8
COc1ccc(NS(=O)(=O)c2cccc(C(=O)O)c2)cc1	x	-0.1	4	-13	1	-1.7
Cc1ccc2c(c1)c1c(c(=O)n(-c3cccc(Cl)c3)c(=O)n1CC(=O)NCCC1=CCCCC1)n2C	2.3%	-0.6	-12	x	x	x
CN(c1ccccc1C(=O)N1CCc2ccccc2C1)S(C)(=O)=O	3.9%[38.3 µM]	-0.3	-2	-3	1	-0.9
Cc1c(O)ccc(/C(Cc2ccc3ccccc3n2)=N\O)c1O	-2.9%[38.3 µM]	0.1	14	5	-8	4.4
CCN(CC)C(=S)SCC(=O)c1ccc(Br)cc1	1.3%	0.2	-4	-7	-1	3.9
CON(C)S(=O)(=O)c1cccc(C(=O)Nc2ccc(S(=O)(=O)NC3=NCCCCC3)cc2)c1	-1.8%	-0.3	-10	-18	2	0.4
C(=N\n1cnnc1)/c1cn(-c2cccs2)nc1-c1ccccc1	-2.9%[38.3 µM]	1.0	9	7	-3	5.5
Cc1cc(Nc2cccc(Cl)c2C)n2ncnc2n1	-3.5%	0.1	u	-5	0	-2.4
Cc1nc2cc(NC(=O)Nc3ccc(N4CCOCC4)cc3)ccc2n1C	3.7%[38.3 µM]	0.5	-16	0	-2	2.1
CCOc1ccc(NC(=O)Cn2c(=O)n(-c3cccc(Cl)c3)c(=O)c3c2c2cc(C)ccc2n3C)cc1	0.5%	0.1	-10	x	x	x
O=S1(=O)C[C@@H](N2CCC(Cc3ccccc3)CC2)[C@H](COCc2ccccc2)N1	2.9%	0.9	16	0	-5	-11
CCOc1cc(CNCCc2ccc(S(N)(=O)=O)cc2)ccc1OCc1ccccc1	-1.0%[38.3 µM]	1.6	25	-10	-4	-3.1
CCOc1ccccc1NC(=O)CN1CCC(C(=O)c2ccc(OC)cc2)CC1	0.1%	1.1	10	-14	-10	0.5
Additional structures
SMILES	PINK1 expr mod	TRPML1 ag	TRPML1 inh	D2 potentiator	Six1-Eya2 blk	D2 agonist
COc1ccccc1C1CC(c2ccccc2)Nc2ncnn21 (stereo not given)	u	1.0	15	-9	0	-1.7
Cc1ccccc1N(C(=O)Cn1nnc2ccccc21)C(C(=O)NCc1ccco1)c1ccncc1 (stereo not given)	-1.4%	1.5	-17	2	-5	4.8
O=C1OC(c2ccccc2)=N/C1=C/c1cccc(OC(=O)c2cccs2)c1	0.8%	0.2	-11	1	8	-1.5
CNC(=O)C1CC(=O)N(c2ccc(OCC(=O)NCc3ccccc3)cc2)C1 (stereo not given)	1.4%	-0.9	12	-8	-8	-8.4
CCOc1ccc2oc(=O)cc(CN3CCN(C(=O)c4ccc(OC)c(OC)c4)CC3)c2c1	3.1%	-0.6	4	x	x	x
Cc1ccc(NC(=O)Cn2c(=O)cnc3ccccc32)cc1S(=O)(=O)N(C)C	1.2%	-0.2	20	3	-1	2.2
CC(=O)NCCc1ccc(C(=O)COC(=O)c2cc(C)oc2C)cc1	1.1%	-0.7	-3	3	-1	-0.1
CC1(c2ccc([N+](=O)[O-])cc2)NC(=O)N(CC(=O)c2ccc3c(c2)OCO3)C1=O (stereo not given)	0.9%	10	21	11	-10	-6.2
CC(C)Oc1cc(F)ccc1-c1cc(C(=O)NCc2cccnc2)[nH]n1	-1.0%	-1.1	x	-17	-1	1.9
COc1ccc(CC(NC(C)=O)C(=O)NC2CCN(c3nc(C)cc(C)c3C#N)CC2)cc1 (stereo not given)	-0.9%	0.6	-10	-8	5	-0.4

Reformatted: five of the compounds above.
SMILES | PINK1 expr mod | TRPML1 ag | TRPML1 inh | D2 potentiator | Six1-Eya2 blk | D2 agonist
CCOc1ccc2oc(=O)cc(CN3CCN(C(=O)c4ccc(OC)c(OC)c4)CC3)c2c1 | 3.1% | -0.6 | 4 | x | x | x
Cc1ccc(NC(=O)Cn2c(=O)cnc3ccccc32)cc1S(=O)(=O)N(C)C | 1.2% | -0.2 | 20 | 3 | -1 | 2.2
CC(=O)NCCc1ccc(C(=O)COC(=O)c2cc(C)oc2C)cc1 | 1.1% | -0.7 | -3 | 3 | -1 | -0.1
CC1(c2ccc([N+](=O)[O-])cc2)NC(=O)N(CC(=O)c2ccc3c(c2)OCO3)C1=O (stereo not given) | 0.9% | 10 | 21 | 11 | -10 | -6.2
CC(C)Oc1cc(F)ccc1-c1cc(C(=O)NCc2cccnc2)[nH]n1 | -1.0% | -1.1 | x | -17 | -1 | 1.9

Assay outcomes deposited in PubChem BioAssay by National Center for Advancing Translational Sciences (NCATS).
